Screens deposited in PubChem by Broad Institute.
Ecoli rRNA inh: reduced GFP signal of wild-type E. coli, primary screen, bacterial rRNA inhibitor project, GFP/RFP fluorescence, OD600, single point; AID 720706, 2013; E. coli WT GFP vs humanized-ribosome RFP mutants, 24 h; stronger effect = lower value; DMSO median 0, no signal -100; GFP signal change (wild-type ribosome), % (no concentration beside the values); 1.6% of 350,000 active;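 active = significant combined selectivity score with lowered wild-type GFP, culture density cut under 30%, mutant RFP and density less affected; inactive = any of these conditions unmet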; note: one replicate is shown; some compounds called inactive have numbers as strong as hits
Ecoli rRNA inh OD600: second read-out of Ecoli rRNA inh, no call of its own (marks repeat the call); OD600 change, %; measured here: OD600 growth;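 optical density of the mix in the first replicate; 0 = DMSO median and -100 = no signal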
Ecoli rRNA inh RFP: further read-out of Ecoli rRNA inh, marked with its call; RFP signal change, %; measured here: RFP humanized mutant strains;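 first replicate; 0 = DMSO median and -100 = no signal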
Starred values were filed as active, the others as inactive.

CC(=O)N1[C@H](CNC(=O)CN(C)C)[C@@H](c2ccc(C3=CCCC3)cc2)[C@@H]1CO was read as Ecoli rRNA inh 1, Ecoli rRNA inh OD600 -3 and Ecoli rRNA inh RFP 0.1.
Screening C[C@@H]1CN([C@@H](C)CO)C(=O)c2cc(NC(=O)c3ccccc3)ccc2O[C@@H](C)CCCCO[C@H]1CN(C)C(=O)CCCN(C)C returned Ecoli rRNA inh 0, Ecoli rRNA inh OD600 4 and Ecoli rRNA inh RFP -1.0.
`CN1c2ccc(-c3ccccc3F)cc2[C@@H]2[C@@H](CCN2C(=O)Nc2ccc(F)cc2)[C@@H]1CO` gave Ecoli rRNA inh -8, Ecoli rRNA inh OD600 -2 and Ecoli rRNA inh RFP 12.
COc1cccc(CN(C)C[C@@H]2OCc3cn(nn3)CCCC(=O)N([C@@H](C)CO)C[C@@H]2C)c1 was read as Ecoli rRNA inh -1, Ecoli rRNA inh OD600 -1 and Ecoli rRNA inh RFP -0.6.
`CO[C@H]1CN(C)C(=O)c2cc(NC(=O)NC(C)C)ccc2OC[C@H](C)NC[C@@H]1C` gave Ecoli rRNA inh 1, Ecoli rRNA inh OD600 1 and Ecoli rRNA inh RFP -1.9.
`CO[C@@H]1CN(C)C(=O)c2cc(NC(=O)C3CCCCC3)ccc2OC[C@H](C)N(C(=O)c2ccccc2)C[C@H]1C` gave Ecoli rRNA inh -1, Ecoli rRNA inh OD600 -8 and Ecoli rRNA inh RFP -3.2.
C[C@@H]1CN([C@H](C)CO)C(=O)CCCn2cc(nn2)CO[C@@H]1CN(C)C(=O)Nc1cccc(F)c1 was read as Ecoli rRNA inh 2, Ecoli rRNA inh OD600 2 and Ecoli rRNA inh RFP -1.4.
Screening CCCNC(=O)N1C[C@@H](C)[C@@H](OC)CN(C)C(=O)c2ccc(NS(=O)(=O)CC(F)(F)F)cc2OC[C@H]1C returned Ecoli rRNA inh -1, Ecoli rRNA inh OD600 2 and Ecoli rRNA inh RFP -1.1.
CN(C[C@H]1N[C@@H](CO)[C@@H]1c1ccc(C2=CCCC2)cc1)C(=O)c1ccncc1 was read as Ecoli rRNA inh -1, Ecoli rRNA inh OD600 -7 and Ecoli rRNA inh RFP -1.9.
CCC(=O)N(C)C[C@H]1Oc2cc(C#C[C@@H](C)O)ccc2S(=O)(=O)N([C@H](C)CO)C[C@@H]1C was read as Ecoli rRNA inh -11, Ecoli rRNA inh OD600 -53 and Ecoli rRNA inh RFP 33.
C[C@@H]1CN([C@H](C)CO)S(=O)(=O)c2ccc(C#CC3CC3)cc2O[C@@H]1CN(C)C(=O)Nc1cc(F)ccc1F was read as Ecoli rRNA inh -1, Ecoli rRNA inh OD600 -5 and Ecoli rRNA inh RFP 0.2.
C[C@@H]1CN([C@H](C)CO)C(=O)Cc2cc(NC(=O)Cc3cn(C)c4ccccc34)ccc2O[C@H]1CN(C)S(=O)(=O)c1ccc(Cl)cc1 was read as Ecoli rRNA inh -3, Ecoli rRNA inh OD600 -3 and Ecoli rRNA inh RFP -4.1.
`Cc1noc(C)c1S(=O)(=O)Nc1ccc2c(c1)C(=O)N([C@H](C)CO)C[C@@H](C)[C@@H](CN(C)S(=O)(=O)c1c(C)noc1C)O2` gave Ecoli rRNA inh -1, Ecoli rRNA inh OD600 5 and Ecoli rRNA inh RFP -4.0.
For CCS(=O)(=O)NCC[C@H]1CC[C@H](NC(=O)C2CCCCC2)[C@@H](CO)O1 the results were Ecoli rRNA inh 1, Ecoli rRNA inh OD600 0 and Ecoli rRNA inh RFP -2.0.
Screening CC(C)CC#Cc1ccc([C@H]2[C@H]3CN(S(C)(=O)=O)CC(=O)N3[C@H]2CO)cc1 returned Ecoli rRNA inh -1, Ecoli rRNA inh OD600 -11 and Ecoli rRNA inh RFP -0.8.
Screening CC(=O)Nc1ccc2c(c1)C(=O)N(C)C[C@H](C)[C@@H](CN(C)C(C)=O)O2 returned Ecoli rRNA inh 0, Ecoli rRNA inh OD600 -1 and Ecoli rRNA inh RFP -1.8.
For COc1ccc(NC(=O)N(C)C[C@@H]2Oc3ccc(NS(=O)(=O)c4ccc(C)cc4)cc3C(=O)N([C@@H](C)CO)C[C@@H]2C)cc1 the results were Ecoli rRNA inh 3, Ecoli rRNA inh OD600 -1 and Ecoli rRNA inh RFP -2.1.
Screening CNC[C@H]1OCc2ccccc2-c2c(n(C)c3ccccc23)C(=O)N([C@@H](C)CO)C[C@@H]1C returned Ecoli rRNA inh 3, Ecoli rRNA inh OD600 4 and Ecoli rRNA inh RFP -0.9.
Screening COc1ccccc1C#Cc1ccc([C@H]2[C@H]3CN(C(=O)C4CCC4)CCCCN3[C@H]2CO)cc1 returned Ecoli rRNA inh -8, Ecoli rRNA inh OD600 -20 and Ecoli rRNA inh RFP 1.7.
COc1ccc(NC(=O)N(C)C[C@@H]2OCc3cn(nn3)CCCC(=O)N([C@@H](C)CO)C[C@@H]2C)cc1 was read as Ecoli rRNA inh 2, Ecoli rRNA inh OD600 1 and Ecoli rRNA inh RFP 1.5.

Ordered by SMILES length (largest number first): part of the list above.
Screening C[C@@H]1CN([C@@H](C)CO)C(=O)c2cc(NC(=O)c3ccccc3)ccc2O[C@@H](C)CCCCO[C@H]1CN(C)C(=O)CCCN(C)C returned Ecoli rRNA inh 0, Ecoli rRNA inh OD600 4 and Ecoli rRNA inh RFP -1.0.
COc1cccc(CN(C)C[C@@H]2OCc3cn(nn3)CCCC(=O)N([C@@H](C)CO)C[C@@H]2C)c1 was read as Ecoli rRNA inh -1, Ecoli rRNA inh OD600 -1 and Ecoli rRNA inh RFP -0.6.
CC(=O)N1[C@H](CNC(=O)CN(C)C)[C@@H](c2ccc(C3=CCCC3)cc2)[C@@H]1CO was read as Ecoli rRNA inh 1, Ecoli rRNA inh OD600 -3 and Ecoli rRNA inh RFP 0.1.

(continued)
Screening C[C@@H]1CN([C@@H](C)CO)C(=O)CCCn2cc(nn2)CO[C@@H]1CN(C)C(=O)Nc1ccccc1 returned Ecoli rRNA inh 2, Ecoli rRNA inh OD600 1 and Ecoli rRNA inh RFP -0.6.
CNC[C@H]1Oc2c(NC(C)=O)cccc2C(=O)N(C)C[C@H]1C was read as Ecoli rRNA inh -1, Ecoli rRNA inh OD600 0 and Ecoli rRNA inh RFP 1.5.
For COCC(=O)Nc1ccc2c(c1)OC[C@@H](C)N(C(=O)c1ccccn1)C[C@@H](C)[C@H](OC)CN(C)C2=O the results were Ecoli rRNA inh 4, Ecoli rRNA inh OD600 -1 and Ecoli rRNA inh RFP 0.1.
For CC(C)NC(=O)N(C)C[C@@H]1Oc2ncccc2C(=O)N(C)C[C@H]1C the results were Ecoli rRNA inh 1, Ecoli rRNA inh OD600 4 and Ecoli rRNA inh RFP -1.2.
Screening CCCNC(=O)N1C[C@@H](C)[C@H](OC)CN(C)C(=O)c2cc(NC(=O)C3CCC3)ccc2OC[C@H]1C returned Ecoli rRNA inh 2, Ecoli rRNA inh OD600 4 and Ecoli rRNA inh RFP -1.5.
O=C(CN1CCOCC1)N[C@@H]1CC[C@@H](CCn2cc(C3CCCC3)nn2)O[C@H]1CO was read as Ecoli rRNA inh 2, Ecoli rRNA inh OD600 -7 and Ecoli rRNA inh RFP 0.2.
`CCC(=O)Nc1ccc2c(c1)C(=O)N(C)C[C@@H](OC)[C@@H](C)CN(Cc1cccnc1)[C@@H](C)CO2` gave Ecoli rRNA inh -2, Ecoli rRNA inh OD600 3 and Ecoli rRNA inh RFP -2.6.
CC(=O)N(C)C[C@@H]1[C@@H](c2ccc(C3=CCCC3)cc2)[C@@H](CO)N1CC1CC1 was read as Ecoli rRNA inh 2, Ecoli rRNA inh OD600 -10 and Ecoli rRNA inh RFP 2.8.
For C[C@@H]1CN([C@@H](C)CO)C(=O)c2ccccc2-c2ccccc2CO[C@@H]1CN(C)C(=O)Nc1cccc(C(F)(F)F)c1 the results were Ecoli rRNA inh 1, Ecoli rRNA inh OD600 4 and Ecoli rRNA inh RFP 0.0.
COc1ccc(-c2ccc3c(c2)[C@@H]2[C@@H](CCN2C(=O)Cc2ccccn2)[C@@H](CO)N3C)cc1 was read as Ecoli rRNA inh 0, Ecoli rRNA inh OD600 5 and Ecoli rRNA inh RFP 3.7.
For Cc1noc(C)c1NC(=O)N1C[C@H](O)COC[C@H]2O[C@H](CC(=O)N[C@@H]3CCN(Cc4ccccc4)C3)CC[C@@H]21 the results were Ecoli rRNA inh 0, Ecoli rRNA inh OD600 15 and Ecoli rRNA inh RFP 0.8.
For COc1cccc(S(=O)(=O)N2CCCCN3[C@H](C2)[C@H](c2ccc(C4=CCCCC4)cc2)[C@@H]3CO)c1 the results were Ecoli rRNA inh 1, Ecoli rRNA inh OD600 14 and Ecoli rRNA inh RFP 2.2.
COc1cccc(S(=O)(=O)Nc2ccc3c(c2)OC[C@@H](C)N(C(=O)Cc2cccnc2)C[C@H](C)[C@H](OC)CN(C)C3=O)c1 was read as Ecoli rRNA inh 5, Ecoli rRNA inh OD600 1 and Ecoli rRNA inh RFP 1.8.
Cc1noc(C)c1S(=O)(=O)Nc1ccc2c(c1)C(=O)N([C@@H](C)CO)C[C@H](C)[C@@H](CN(C)C(=O)Nc1ccc(F)cc1)O2 was read as Ecoli rRNA inh -2, Ecoli rRNA inh OD600 7 and Ecoli rRNA inh RFP 1.0.
For C[C@@H]1CN([C@@H](C)CO)C(=O)Cc2cc(NS(=O)(=O)c3ccc(F)cc3)ccc2O[C@@H]1CN(C)C(=O)Nc1ccc2c(c1)OCO2 the results were Ecoli rRNA inh -1, Ecoli rRNA inh OD600 5 and Ecoli rRNA inh RFP 0.3.
Screening CC(=O)N(C)C[C@@H]1Oc2c(cccc2N(C)C)C(=O)N(C)C[C@@H]1C returned Ecoli rRNA inh 1, Ecoli rRNA inh OD600 1 and Ecoli rRNA inh RFP -2.2.
For CCC(=O)N1[C@H](CO)[C@H](c2ccc(-c3ccc(F)cc3)cc2)[C@H]1CNC(C)=O the results were Ecoli rRNA inh -2, Ecoli rRNA inh OD600 1 and Ecoli rRNA inh RFP 1.3.
For O=C(NCC[C@@H]1CC[C@H](NS(=O)(=O)c2ccc(Cl)cc2)[C@H](CO)O1)Nc1ccc(F)cc1 the results were Ecoli rRNA inh -11, Ecoli rRNA inh OD600 -10 and Ecoli rRNA inh RFP 2.5.
CC(=O)N(C)C[C@@H]1Oc2ccc(NS(C)(=O)=O)cc2C(=O)N(C)C[C@H]1C was read as Ecoli rRNA inh 0, Ecoli rRNA inh OD600 6 and Ecoli rRNA inh RFP -0.8.
`C[C@H]1CCn2cc(nn2)COCCNC1=O` gave Ecoli rRNA inh 1, Ecoli rRNA inh OD600 2 and Ecoli rRNA inh RFP 3.9.

No new results follow: three of the compounds above.
Screening C[C@@H]1CN([C@@H](C)CO)C(=O)CCCn2cc(nn2)CO[C@@H]1CN(C)C(=O)Nc1ccccc1 returned Ecoli rRNA inh 2, Ecoli rRNA inh OD600 1 and Ecoli rRNA inh RFP -0.6.
CNC[C@H]1Oc2c(NC(C)=O)cccc2C(=O)N(C)C[C@H]1C was read as Ecoli rRNA inh -1, Ecoli rRNA inh OD600 0 and Ecoli rRNA inh RFP 1.5.
For COCC(=O)Nc1ccc2c(c1)OC[C@@H](C)N(C(=O)c1ccccn1)C[C@@H](C)[C@H](OC)CN(C)C2=O the results were Ecoli rRNA inh 4, Ecoli rRNA inh OD600 -1 and Ecoli rRNA inh RFP 0.1.

Of the compounds above, two have a CF3 group:
Screening CCCNC(=O)N1C[C@@H](C)[C@@H](OC)CN(C)C(=O)c2ccc(NS(=O)(=O)CC(F)(F)F)cc2OC[C@H]1C returned Ecoli rRNA inh -1, Ecoli rRNA inh OD600 2 and Ecoli rRNA inh RFP -1.1.
For C[C@@H]1CN([C@@H](C)CO)C(=O)c2ccccc2-c2ccccc2CO[C@@H]1CN(C)C(=O)Nc1cccc(C(F)(F)F)c1 the results were Ecoli rRNA inh 1, Ecoli rRNA inh OD600 4 and Ecoli rRNA inh RFP 0.0.

(cont.)
For CCCNC(=O)N1[C@H](CO)[C@@H]2c3ccccc3N(C(=O)CC)C[C@@H]21 the results were Ecoli rRNA inh 3, Ecoli rRNA inh OD600 -1 and Ecoli rRNA inh RFP -3.0.
CC(C)CC#Cc1ccc([C@H]2[C@H](CO)N3C(=O)CN(S(=O)(=O)c4cccc(F)c4)C[C@@H]23)cc1 was read as Ecoli rRNA inh -2, Ecoli rRNA inh OD600 -12 and Ecoli rRNA inh RFP 0.5.
For COc1ccc(NC(=O)Nc2ccc3c(c2)CC(=O)N([C@@H](C)CO)C[C@@H](C)[C@@H](CN(C)Cc2ccc(Oc4ccccc4)cc2)O3)cc1 the results were Ecoli rRNA inh 4, Ecoli rRNA inh OD600 8 and Ecoli rRNA inh RFP -0.1.
For CCCN1C[C@H](C)[C@@H](OC)CN(C)C(=O)c2cc(NC(=O)NC3CCCC3)ccc2OC[C@H]1C the results were Ecoli rRNA inh 5, Ecoli rRNA inh OD600 10 and Ecoli rRNA inh RFP 0.3.
`C[C@H](CO)N1C[C@H](C)[C@@H](CN(C)Cc2ccc3c(c2)OCO3)OCCCC[C@H](C)Oc2ccc(N(C)C)cc2C1=O` gave Ecoli rRNA inh 0, Ecoli rRNA inh OD600 2 and Ecoli rRNA inh RFP 2.8.
CN1c2ccc(-c3cccc(F)c3)cc2[C@H]2[C@H](CCN2C(=O)C2CCC2)[C@@H]1CO was read as Ecoli rRNA inh -52, Ecoli rRNA inh OD600 -74 and Ecoli rRNA inh RFP -9.3.

These rows are one share of the data (hit frequency here may not be typical).
